NS1 function inh = qHTS Assay for Inhibitors of Influenza NS1 Protein Function. S. cerevisiae slowed by influenza A NS1, growth recovery by OD600. Potency, µM (titrated, usually from 46.1 µM), for inactives: at the highest dose activity, positive = more growth. 0.4% of 270,000 active. AID 2326, 2010; note: actives are rising curves; nearly all actives have a fitted effect of over 50% in size
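Compounds were scored for reversing the slow growth caused by influenza A NS1 in S. cerevisiae, measured by optical density at 600 nm. Assay medium contained 2% galactose at pH 6.0; NS1-free yeast of the same strain were the positive control.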
MARV entry inh = qHTS for inhibitors of binding or entry into cells for Marburg Virus | Marburg virus pseudotyped entry inhibition, cell reporter; control for the full effect not named in the record; about a third of the inactives were read at about 46 µM | Potency, µM (doses to about 37.8 µM), for inactives: at the highest dose activity change, negative = inhibition, hits mostly inhibitors | 1.8% of 300,000 active | AID 540276, 2011; active = well fitted inhibition curve with a large enough effect; inconclusive = small, poorly fitted or top-dose-only effect, or effect the other way; inactive = flat fitted curve, though single readings scatter; tested in HEK293 cells; about a fifth of its hits are not listed in these tables; note: % is set by controls: 0 for no effect and ±100 for the full control effect; luciferase read-out
2A StopGo = High Throughput Screening for Foot and Mouth Disease Virus Antivirals; human cells with a luciferase reporter of 2A StopGo recoding; control for the full effect not named in the record; 1.2% of 410,000 active; Potency, µM (doses to about 57.9 µM), for the others: at the top dose signal change, negative = less light; active = well fitted falling curve with a large enough effect; inconclusive = small, poorly fitted or top-dose-only effect; inactive = no such curve, though single readings can be large or run the other way; tested in HEK293T cells; note: % is set by controls: 0 for no effect and ±100 for the full control effect; nearly all actives have a fitted effect of over 45% in size; luciferase light after 4 h
LASV entry inh = qHTS for Inhibitors of binding or entry into cells for Lassa Virus. Potency, µM (top dose mostly 37.9 µM), without a hit: top-dose activity change, negative = inhibition, hits mostly inhibitors. 1.2% of 300,000 active. Lassa virus pseudotype entry inhibition, cell reporter; control for the full effect not named in the record. AID 540256, 2011; active means well fitted inhibition curve with a large enough effect; inconclusive means small, poorly fitted or top-dose-only effect, or effect the other way; inactive means flat fitted curve, though single readings scatter; tested in HEK293 cells; note: % is set by controls: 0 for no effect and ±100 for the full control effect; nearly all actives have a fitted effect of over 50% in size; luciferase read-out
RE007 growth inh = qHTS Assay for Inhibitors of the HIV-1 protein Vpr; AID 651644, 2012; S. pombe RE007 Vpr strain, BacTiter-Glo ATP luminescence, 24 h; control for the full effect not named in the record; 0.21% of 360,000 active; Potency, µM (highest dose often 92.2 µM), for the others: at the top dose activity change, negative = less growth; active = well fitted falling curve with a large enough effect; inconclusive = small, poorly fitted or top-dose-only effect; inactive = no such curve, though single readings can be large or run the other way;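 note: % is set by controls: 0 for no effect and ±100 for the full control effect; nearly all actives have a fitted effect of over 50% in size; the assay follows cell death caused by Vpr and the record does not say whether a fall means rescue or toxicity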
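Fission yeast strain RE007, carrying one chromosomally integrated HIV-1 vpr copy, was seeded at OD 0.01 in PMG+AL medium with 23 nL pinned compound. After 24 h at 30 °C and 99% humidity, viability was read by BacTiter-Glo luminescence.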
SARS PLP yeast = qHTS of Yeast-based Assay for SARS-CoV PLP; S. cerevisiae expressing SARS-CoV PLpro, growth rescue; control for the full effect not named in the record; Potency, µM (series often up to 32.9 µM), inactives show top-dose activity, positive = growth rescue; 0.19% of 330,000 active; AID 485353, 2010; note: 0% is about no effect; nearly all actives have a fitted effect of over 55% in size; growth read by luminescence after 48 h
Cruzain Triton = qHTS Assay for Promiscuous and Specific Inhibitors of Cruzain (with detergent); Cruzipain (Trypanosoma cruzi), P25779; purified cruzain, Z-FR-AMC fluorescence, 0.01% Triton; Potency, µM, for the others: max response, negative = inhibition, actives largely listed as inhibitors; 0.43% of 200,000 active; AID 1478, 2009; active = well fitted curve in the direction sought with a large enough effect; inconclusive = small, poorly fitted or top-dose-only effect, or another doubt; inactive = no such curve, though single readings can be large; an effect the other way counts as inactive or inconclusive;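 note: plate controls were neutral wells for no effect and buffer without enzyme for full effect; nearly all actives have a fitted effect of over 40% in size; top concentration of the series not given in the record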
Target sequence (P25779 123-467 limits assumed): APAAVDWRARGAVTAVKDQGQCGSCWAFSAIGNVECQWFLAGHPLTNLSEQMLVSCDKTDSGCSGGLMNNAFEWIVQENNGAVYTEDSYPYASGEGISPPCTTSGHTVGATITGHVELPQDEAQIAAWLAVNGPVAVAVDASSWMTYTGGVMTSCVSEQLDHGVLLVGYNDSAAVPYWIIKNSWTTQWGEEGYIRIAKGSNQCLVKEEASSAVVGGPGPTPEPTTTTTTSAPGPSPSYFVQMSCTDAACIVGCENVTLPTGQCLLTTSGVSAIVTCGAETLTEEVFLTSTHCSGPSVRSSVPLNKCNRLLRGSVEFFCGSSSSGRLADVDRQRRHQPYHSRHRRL
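Purified cruzain (1.5 nM final) was preincubated with compounds for 15 min at room temperature in 100 mM sodium acetate pH 5.5, 5 mM DTT, 0.01% Triton X-100. Reaction started with 2 uM Z-FR-AMC; AMC fluorescence change over 60 s gave activity.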
Cruzain inh noDet = qHTS Assay for Promiscuous and Specific Inhibitors of Cruzain (without detergent) | Cruzipain (Trypanosoma cruzi), P25779 | purified cruzain, Z-FR-AMC fluorescence, no detergent | Potency, µM, inactives show max response, negative = inhibition, actives largely listed as inhibitors | 2.3% of 200,000 active | AID 1476, 2009; active = well fitted curve in the direction sought with a large enough effect; inconclusive = small, poorly fitted or top-dose-only effect, or another doubt; inactive = no such curve, though single readings can be large; an effect the other way counts as inactive or inconclusive;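 note: plate controls were enzyme without inhibitor for no effect and buffer without enzyme for full effect; nearly all actives have a fitted effect of over 40% in size; top concentration of the series not given in the record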
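Purified cruzain at 1.5 nM, pre-incubated 15 min with compound at room temperature in 100 mM sodium acetate pH 5.5, 5 mM DTT, 0.00005% Triton X-100. Reaction started with 2 uM Z-FR-AMC; AMC fluorescence increase over 60 s gives rate.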
An asterisk follows results filed as active; ? = inconclusive; . = no result given; & = joins results of further samples; [ ] = remark or other dose. Unless noted, calls come from the whole dose curve; as a rule, active means well fitted rising curve with a large enough effect; inconclusive means small, poorly fitted or top-dose-only effect; inactive means no such curve, though single readings can be large or run the other way. Potency is the fitted concentration of half-maximal effect.

SMILES	NS1 function inh	MARV entry inh	2A StopGo	LASV entry inh	RE007 growth inh	SARS PLP yeast	Cruzain Triton	Cruzain inh noDet
Cc1cccc(N(O)C(=O)Nc2cccc(Cl)c2)c1	-29%	11%	31%[activator]	16%	-14%	1%	.	.
CCO[C@@H]1OC(C(=O)N2CCN(C)CC2)=C[C@H](c2csc3ccccc23)[C@H]1CCCO	-3%	.	1%	.	-2%	0%	.	.
Cc1ccc(S(=O)(=O)N2CCN(C(=O)COc3ccc(-c4nnco4)cc3)CC2)cc1	-6%	-18%	-16%	-19%	9%	10%	6.4%	0%
CN(Cc1ncc[nH]1)C(=O)CC1C(=O)NCCN1Cc1c(F)cccc1Cl (stereo unspecified)	5%	-16%[46.1 µM]	-7%	0%	-16%	-1%	.	.
O=C(NC1CCN(C(=O)Nc2cccc(F)c2)CC1)C1CCCCC1	5%	10%	-7%	2%	-10%	1%	-2.0%	3%
O=C(NC1=NCCS1)c1ccc(Br)s1	0%	-10%	24%	-8%	-8%	-2%	-3.1%	-8%
COc1cccc(CNC(=O)c2sc3nc4n(c(=O)c3c2C)CCC4)c1	.	.	-10%	1%[46.1 µM]	.	.	-0.8%	-21%
O=C(N/N=C/c1cccc([N+](=O)[O-])c1)C1CC(=O)N(c2ccc(F)cc2)C1 (stereo unspecified)	-2%	.	-16%	.	-2%	2%	-2.9%	3%
CCC1CCCCN1S(=O)(=O)c1ccc(C(=O)Nc2nnc(C3CC3)o2)cc1 (stereo unspecified)	-53%	?	-8%	-5%[46.1 µM]	7%	13%	.	.
COc1ccc(Cc2nc(-c3cccs3)no2)cc1	-9%	.	19%	.	-14%	1%	.	.
O=C(COc1ccccc1)Nc1ccc(C(=O)N2CCCC2)cc1	29%	?	16%	?	0%	3%	.	.
CC(=O)c1ccc(N2CCN(C(=O)c3ccc4nc[nH]c4c3)CC2)cc1	27%	-1%	-11%	2%	-5%	12%	-7.1%	-6%
O=C1COc2ccc(C(=O)COC(=O)Cc3ccsc3)cc2N1	-5%	-8%[46.1 µM]	20%	-11%	12%	1%	.	.
CCN(CC)C(=O)CSC1c2ccccc2C(=O)N1c1ccccc1 (stereo unspecified)	15%	-3%	-7%	4%	-7%	9%	1.1%	-2%
COc1ccc2cc(C(=O)Nc3ccc(Cl)cc3)sc(=O)c2c1OC	-2%	-24%	-9%	?	4%	-10%	-1.3%	1%
COc1ccc(CC(=O)N/N=C(\C)c2cccs2)cc1	1%	10%[46.1 µM]	-3%	9%[46.1 µM]	1%	1%	.	.
CCCCOc1ccc(C(=O)Nn2c(-c3cccs3)nc3ccccc3c2=O)cc1	-4%	-12%[46.1 µM]	-27%	-7%	4%	19%	0.9%	?
COC(=O)c1sc(SC)c(S(=O)(=O)C(C)C)c1N	-3%	.	-2%	.	-1%	0%	.	.
CC(C)NC(=O)NC(=O)COC(=O)/C=C/c1ccccc1[N+](=O)[O-]	.	23%[46.1 µM]	-1%	-10%	-7%	0%	.	.
COc1ccc(OC)c(CN2CCN(CCCc3ccccc3)C(CCO)C2)c1 (stereo unspecified)	10%	.	-15%	.	-13%	5%	.	.
CCCCSc1[nH]c(=O)c(C(=O)OCC)cc1C#N	-170%	9%	5%	4%	?	-33%	1.6%	-2%
CC1CCN(C(=O)c2ccc(S(=O)(=O)Cc3ccccc3F)c([N+](=O)[O-])c2)CC1	6%	?	20µM*	?	4%	12%	0.2%	22%
Cc1ccc(NC(=O)CCCCCN2C(=O)[C@@H]3Cc4ccccc4CN3C2=O)cc1	-22%	.	-25%	.	12%	1%	.	.
c1ccc2c(c1)CCCn1nnnc1-2	3%	5%	-22%	-14%	-16%	3%	6.6%	-17%
CC(=O)Nc1ccc(NC(=O)CSc2ccc3nnc(-c4ccccn4)n3n2)cc1	4%	.	-3%	.	14%	0%	.	.

New compounds follow:
SMILES	NS1 function inh	MARV entry inh	2A StopGo	LASV entry inh	RE007 growth inh	SARS PLP yeast	Cruzain Triton	Cruzain inh noDet
Cc1ccccc1Cn1c(=O)n(CCc2ccccc2)c(=O)c2sc3ccccc3c21	.	1%[46.1 µM]	22%	20%[46.1 µM]	.	.	0.8%	-5%
COc1ccc(CC(=O)Nc2ccccc2N2CCCC2)cc1	4%	.	-30%	.	6%	-15%	.	.
Cc1ccc(NC(=O)CN(C)C(=O)CSc2nc(C)cc(C)n2)cc1	.	?	-14%	16%	7%	-18%	.	.
c1ccc2[nH]c(SCc3cn4cccnc4n3)nc2c1	-3%	13%	46%[activator]	3%	-14%	11%	-11%	-5%
O=C(Nc1cccnc1)OC1CCCCC1	.	-9%[46.1 µM]	0%	17%	-8%	-4%	.	.
CCOC(=O)c1ccc(NC(=O)C2CCCN(c3ncnc4onc(C)c34)C2)cc1 (stereo unspecified)	.	.	0%	?	.	.	-5.1%	11%
O=C(C1CCCO1)N1CCN(C(=S)Nc2cc(F)cc(F)c2)CC1 (stereo unspecified)	0%	6%	-22%	-2%	-8%	-4%	.	.
COc1cccc(-c2cc(C(=O)N3CCc4ccccc4C3)[nH]n2)c1	-7%	.	65%[activator]	.	-10%	-2%	.	.
COc1cccc(C(=O)Oc2cc(N)n(S(=O)(=O)c3ccc(C)cc3)n2)c1OC	-53%	-4%&-4%	0%	7%	5%	-2%	-5.7%	-10%
Cc1cc(NC(=O)CSc2nnc(CNc3cccc(C(F)(F)F)c3)n2Cc2ccco2)no1	-5%	-16%&-16%	-1%	14%	-5%	3%	0.6%	10%
CCOc1ccc(NC(=O)CSc2nc(=O)n(CCCN3CCOCC3)c3c2CCC3)cc1	.	-15%	-22%	14%[46.1 µM]	-14%	-18%	.	.
CCCCNC(=O)CNC(=S)N(Cc1ccccc1)Cc1cccnc1	0%	-12%	7%	-13%	-13%	12%	-0.9%	4%
COc1ccc(NC(=O)C(CC(=O)O)Cc2ccc(Cl)cc2)cc1 (stereo unspecified)	11%	.	-2%	.	-1%	6%	.	.
COC(=O)c1cnc(Oc2ccc(NC(=O)NC(=O)c3c(F)cccc3Cl)cc2)cc1C(F)(F)F	1%	?	-21%	3%[46.1 µM]	8%	0%	.	.
O=C(CCN1C(=O)c2ccccc2C1=O)Nc1cccc(O)c1	1%	-3%	12%	2%	-16%	1%	.	.
Cc1cc2ccccc2n1CCNC(=O)C(C)(C)C	-13%	.	-10%	.	15%	-6%	-2.4%	6%
Cc1nc2ccccc2c2c1CC(C(C)(Cl)Br)O2 (stereo unspecified)	-10%	.	8.9µM*	.	-16%	-4%	.	.
O=C(O)c1ccc(CN2C(=O)c3ccccc3S2(=O)=O)cc1	8%	18%[46.1 µM]	-17%	0%	-5%	2%	-2.5%	-7%
Cc1cccc(Cn2c(=O)n(CC3CCC(C(=O)N4CCC(C)CC4)CC3)c(=O)c3sccc32)c1 (stereo unspecified)	.	.	32µM*	?	.	.	-0.6%	-6%
Cn1c(C(=O)OCC(=O)NCc2ccc(F)cc2)cc2occc21	.	9%	-2%	11%	22%	1%	.	.
CCOc1ccccc1OCC(=O)NN1Cc2ccccc2C1=N	3%	30%	-2%	-7%	-14%	2%	-0.7%	-7%
Nc1nc(SCC(=O)Nc2ccccc2)[nH]c(=O)c1NC(=O)c1cccs1	?	16%	-20%	0%	-5%	-1%	0.7%	1%
COC(=O)Nc1sc2c(c1C(=O)N1CCOCC1)CCC(C)C2 (stereo unspecified)	-3%	-3%	-8%	26%	-6%	-4%	2.9%	-2%
Cc1csc(NC(=O)CS(=O)(=O)Cc2ccccc2)n1	-1%	?	21%	3%[46.1 µM]	7%	-2%	.	.
Cc1cc(-c2csc3ncnc(N4CCN(C)CC4)c23)cc(C)c1C	-9%	-16%[46.1 µM]	-14%	-18%	-5%	-2%	.	.

Following part
SMILES	NS1 function inh	MARV entry inh	2A StopGo	LASV entry inh	RE007 growth inh	SARS PLP yeast	Cruzain Triton	Cruzain inh noDet
COc1cccc(-n2c(Cc3cc(=O)[nH]c(=O)[nH]3)nnc2SCC(=O)NC2CCCC2)c1	-1%	1%	-11%	.	-5%	-1%	6.3%	-1%
Cn1cc(S(=O)(=O)CC(=O)N2CCc3ccccc32)c2ccccc21	14%	.	10%	.	-4%	15%	-0.4%	-7%
C/C(=N/NS(=O)(=O)c1cc(C)ccc1C)c1ccc2c(c1)OCO2	-6%	-6%[46.1 µM]	52%[activator]	28%[46.1 µM]	-11%	1%	.	.
O=C(Nc1ncn[nH]1)c1cc(S(=O)(=O)Nc2cccc(C(F)(F)F)c2)ccc1Cl	4%	3%	14%	19%	2%	1%	.	.
Cc1cccc(-n2cnc(C(=O)Nc3cccnc3)c2)n1	-21%	6%	0%	?	-6%	17%	0.3%	-3%
Cc1ccc(N(C)S(=O)(=O)c2ccc(-c3coc(C)n3)cc2)cc1	.	.	-11%	-24%[46.1 µM]	.	.	-5.9%	-12%
CC1(C)CC(=O)N(c2cc(Cl)ccc2Cl)C(=O)C1	5%	.	0%	.	13%	0%	.	.
COc1cc(C2NC(=O)NC(C)=C2C(=O)OC(C)C)ccc1OC(=O)c1ccco1 (stereo unspecified)	-2%	?	.	23%	-3%	0%	-4.1%	15%
Cc1ccc(/C=C/c2onc(C)c2S(=O)(=O)N2CCC(C(=O)N3CCN(c4cccc(C)c4)C(C)C3)CC2)cc1 (stereo unspecified)	.	.	0%	5%[46.1 µM]	.	.	-3.0%	-6%
CCOc1ccc(CCNC(=O)Cn2ccc3ccccc3c2=O)cc1OCC	2%	?	-10%	?	-19%	2%	.	.
O=C(O)CN1C(=O)/C(=C/c2ccsc2)SC1=S	8%	?	11%	0%	-10%	0%	.	.
Cc1ccc(C(C(=O)NCc2ccc(F)cc2)N(Cc2ccco2)C(=O)c2snc(C(N)=O)c2N)o1 (stereo unspecified)	-10%	?	18%	?	10%	-1%	.	.
COC(=O)c1ccc(Cn2cnc3cnccc32)cc1	2%	.	-23%	.	10%	7%	.	.

Source: PubChem
